hNpr1 antagonist – human Npr1 receptor antagonism | P16066 | HEK293 hNpr1 GloSensor cGMP, ANP-stimulated luminescence | Potency, µM (doses to about 46.3 µM), without a hit: at the highest dose activity change, negative = inhibition, actives largely listed as inhibitors | 1.6% of 76,000 active; active = well fitted inhibition curve with a large enough effect; inconclusive = small, poorly fitted or top-dose-only effect; inactive = no such curve, though single readings can be large or run the other way;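 note: nearly all actives have a fitted effect of over 60% in size; nearly all hits also lower the signal before the agonist is added; a reference antagonist and vehicle were the controls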
Target sequence (P16066 whole entry, looked up): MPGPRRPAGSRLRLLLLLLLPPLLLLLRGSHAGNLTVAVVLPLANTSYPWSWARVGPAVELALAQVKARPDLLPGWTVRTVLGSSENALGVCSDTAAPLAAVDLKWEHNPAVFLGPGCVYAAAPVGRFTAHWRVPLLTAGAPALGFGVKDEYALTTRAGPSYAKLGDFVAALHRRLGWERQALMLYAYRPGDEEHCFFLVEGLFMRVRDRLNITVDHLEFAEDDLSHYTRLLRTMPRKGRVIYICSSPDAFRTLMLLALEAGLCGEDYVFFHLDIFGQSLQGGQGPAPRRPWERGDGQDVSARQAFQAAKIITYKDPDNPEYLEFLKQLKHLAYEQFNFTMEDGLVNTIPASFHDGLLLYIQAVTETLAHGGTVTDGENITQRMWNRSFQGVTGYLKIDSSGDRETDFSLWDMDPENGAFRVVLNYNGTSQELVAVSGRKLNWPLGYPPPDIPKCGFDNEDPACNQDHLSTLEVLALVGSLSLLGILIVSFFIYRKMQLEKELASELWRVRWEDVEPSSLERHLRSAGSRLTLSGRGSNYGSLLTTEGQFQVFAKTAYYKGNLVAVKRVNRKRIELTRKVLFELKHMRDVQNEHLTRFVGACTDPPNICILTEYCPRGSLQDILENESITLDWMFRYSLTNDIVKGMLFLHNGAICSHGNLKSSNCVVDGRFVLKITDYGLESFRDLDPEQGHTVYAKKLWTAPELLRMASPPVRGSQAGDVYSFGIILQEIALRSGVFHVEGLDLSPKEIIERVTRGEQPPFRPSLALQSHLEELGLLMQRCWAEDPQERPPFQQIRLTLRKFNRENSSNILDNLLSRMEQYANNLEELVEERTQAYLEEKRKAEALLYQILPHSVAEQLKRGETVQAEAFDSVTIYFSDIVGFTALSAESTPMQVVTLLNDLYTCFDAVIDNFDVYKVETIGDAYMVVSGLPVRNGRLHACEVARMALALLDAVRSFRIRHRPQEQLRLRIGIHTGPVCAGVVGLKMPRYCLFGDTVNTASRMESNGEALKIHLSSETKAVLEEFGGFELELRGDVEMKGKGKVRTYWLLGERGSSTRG
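Compound pre-incubated 30 min at room temperature on GloSensor-loaded HEK293 cells stably carrying hNpr1 and the pGS-40F cGMP biosensor. Stimulation uses hNppA at 0.1 nM final; luminescence is taken at baseline and 20 min post-agonist.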
* hit, by the source's call; ? = inconclusive; [ ] = remark or other dose. % is set by controls: 0 for no effect and ±100 for the full control effect; potency is the fitted concentration of half-maximal effect. These rows are one share of the data (hit frequency here may not be typical).

hNpr1 antagonist | Structure
5% | Cc1ccc(C(=O)N2CCC3(CC2)N(C)C(=O)CS3(=O)=O)s1
-18%[70.6 µM] | Cc1noc(C)c1-c1cc2c(cc(C)n2C)c(Nc2ccncn2)n1
-30%[70.6 µM] | Cc1csc(NC(=O)c2nc3c(o2)CCN(Cc2ccccc2)CC3)n1
2% | CCNC(=O)[C@@H]1C[C@@H](NC(=O)Cn2nc(C)cc2N)CN1C1CCOCC1
2%[70.6 µM] | CC(C)(C)c1cc(C[C@@H]2C[C@H](NC3CCOCC3)C2(C)C)no1
-14% | COCCN1Cc2ccc(Nc3cccnc3)nc2C(C)(C(=O)Nc2cccc(OC)c2)C1 (configuration not stated)
-1% | COc1cc(NC(=O)C[C@H]2NC(=O)c3ccccc3NC2=O)ccc1-n1nc(C)cc1C
8% | CN(CCN1CCOCC1)C(=O)c1cc(COc2cccc(F)c2)[nH]n1
10%[70.6 µM] | O=C(O)c1ccc(CN2C[C@H](O)C[C@H]2c2nc(-c3cccc([N+](=O)[O-])c3)no2)cc1
-1% | Cn1c(C(=O)Nc2ccc(N3CCOCC3)cc2)cc2c1CCN(Cc1ccccc1)C2
-2% | CNC(=O)N1CCC(c2nc(CCOc3ccc(F)cc3)no2)C1 (configuration not stated)
4% | COc1cccc(OCc2cc(C(=O)N3CCCCC3c3cccnc3)n[nH]2)c1 (configuration not stated)
-1% | CCc1noc([C@@H]2CC(F)(F)CN2C(=O)Cn2nc(C)cc2C)n1
1% | COCCN1CCC2(CCC1=O)CCN(C(=O)CCn1nc(C)cc1C)CC2
-2% | COc1ccc(-c2nc3cc(C)ccc3cc2CN2CCC[C@H]2C(N)=O)cc1OC
0% | CCCNC(=O)c1c(OCC2CC2)cc(=O)n2c1CCOCC2
-12%[70.6 µM] | CC(C)(Oc1nn(CCN2CCOCC2)c2ccccc12)C(=O)NCCc1ccccc1
0% | CCOC(=O)C1CCCCN1C(=O)c1c(C)oc2c1CN(Cc1cccc(F)c1)CC2 (configuration not stated)
-3% | O=C([C@@H]1C[C@H](Oc2cccnc2)CN1S(=O)(=O)c1cccc(F)c1)N1CCCC1
-22% | COc1cccc(-c2ccc(CN3C4CCC3CN(C(=O)Nc3ccccc3F)C4)cc2)c1

Next results follow.
hNpr1 antagonist | Structure
-28%[70.6 µM] | Cc1ccc2nc([C@H]3CCN(Cc4cccs4)C3)[nH]c2c1
14% | COc1ccc(C(=O)N[C@@H]2CN(S(C)(=O)=O)C[C@H]2CN(C)C)cc1OC
-1% | O=C(NCc1ccc(F)cc1F)C1CCCN(c2cn[nH]c(=O)c2)C1 (configuration not stated)
2%[70.6 µM] | CC(C)NC(=O)C[C@@H]1CCNC[C@@H]1Cc1cc(CSc2ccccc2)on1
? | COc1ccccc1N1CCN(C(=O)C(C)[C@@H]2CCc3c(C)cc(OCCN4CCOCC4)c(C)c3C2)CC1 (some centres not stated)
0% | O=C(c1cn(CCN2CCNCC2)nn1)N1C[C@@H]2CC[C@H](C1)N(CC1CC1)C2
4% | COCCN1C(=O)c2ccccc2C(C(=O)Nc2ccccc2O)C12CCCC2 (configuration not stated)
28µM* | O=C(Nc1cccnc1)c1nc2c(o1)CCN(Cc1ccc(F)c(F)c1)CC2
1% | COc1ccc(OCc2nc(C)c(CCO)c(=O)n2CC(=O)NCc2cccs2)cc1
3% | CCc1nc2c(=O)n(CC(=O)N3CCN(c4cccc(OC)c4)CC3)nc(C)c2s1
-1% | CCC(C(=O)N1CCC2(CC1)C(=O)N(CC(=O)NCCOC)CN2c1ccccc1)c1ccccc1 (configuration not stated)
-3%[70.6 µM] | COCc1cc(C[C@@H]2CC[C@H](O)[C@@H](CNC(=O)C3CCCC3)O2)no1
-8% | COc1ccc(NC(=O)Cn2nc3n(c2=O)CCCC3)cc1
-5% | Nc1ncccc1CNC(=O)[C@H]1CCC[C@H](O)C1
-3% | N#Cc1ccccc1CN1CCCCCNC(=O)[C@@H]2CCC[C@@H]21
31%[activator] | O=C(Cc1cccc(Cl)c1)N1CCC(c2nn(Cc3ccccc3)c(=O)[nH]2)CC1
-1% | CCN1CCC(NCc2cccnc2N2CCN(c3ccccn3)CC2)CC1
-9% | COc1cccc(CCC(=O)N2CCCCCC2CN2CCC(OC)CC2)c1 (configuration not stated)
-3% | CS(=O)(=O)N1CCCN(C(=O)C2CCOCC2)CCNC(=O)CC1c1ccccc1 (configuration not stated)
-16%[70.6 µM] | CC(C)(C)c1cc(C[C@H]2CNCC[C@H]2CC(=O)Nc2ccccc2)no1

More results.
hNpr1 antagonist | Structure
-11%[70.6 µM] | COc1ccc(-c2nnc3ccc(Nc4cccc(OC)c4)nn23)nc1
-3% | COCCN1C(=O)CS(=O)(=O)C12CCN(C(=O)Cc1cccc(OC)c1)CC2
1% | O=C(Cn1nc2c(cc1=O)CCCC2)N1CCOCC1
12%[70.6 µM] | O=C(NCC1(COc2cnccn2)C[C@@H](O)[C@@H](O)C1)c1ccc(F)cc1 (some centres not stated)
? | CC1(c2noc(-c3ccccc3)n2)CCN(C(=O)C2CCN(S(=O)(=O)c3cnc[nH]3)CC2)CC1
4% | Cn1c(=O)oc2ccc(C(=O)N3CCn4nc(C(O)CO)cc4C3)cc21 (configuration not stated)
2%[70.6 µM] | O=C(c1ccc(-c2ncc3cnc(-c4cccc(F)c4)cn23)cc1)N1CC(O)C1
0% | COc1ccc(CCC(=O)NCC(=O)N2CCCCCNC(=O)CC2c2ccccc2)cc1 (configuration not stated)
5% | CCC(C)(C)C(=O)N1CC(c2nnc(-c3ccncc3)o2)C2(CCOCC2)C1 (configuration not stated)
5% | COC(=O)CN1C(=O)N(CCc2ccccc2)C2(CCN(Cc3ccc4c(c3)CCO4)CC2)C1=O
-9% | CS(=O)(=O)N1CCCN(C(=O)Cc2ccccc2)CCNC(=O)CC1c1ccccc1 (configuration not stated)
5% | COCC(=O)NC[C@H]1CCN(Cc2sccc2C)C[C@H]1N(C)C
-5% | CS(=O)(=O)N1CCC2(CCC(=O)N(CC3CC3)CC2)CC1
11µM* | Cc1ccccc1CC(=O)N1CCC2(CC1)NC(=O)N(c1ccc(F)cc1)N2
-1%[70.6 µM] | O=C(NCC1(COc2ccccc2)C[C@@H](O)[C@@H](O)C1)c1cnccn1 (some centres not stated)
6% | CCC(C)NC(=O)C(NC(=O)c1cccc(OC)c1)C1CCN(C(=O)c2cccc(C)c2)CC1 (configuration not stated)
-1% | O=C(CCC[C@H]1NC[C@@H]2C[C@H]1CN(Cc1ccccc1)C2)NCCCn1cccn1
14µM* | O=C(c1ccc(F)cc1F)N1CCN(c2cc(-c3ccc(Cl)cc3)[nH]n2)CC1
2% | CCn1nccc1C(=O)NCC(=O)N1CCCCCNC(=O)CC1c1ccccc1 (configuration not stated)
-4% | CCOCCCNC(=O)N1CCC(Oc2ncccc2C(=O)N(C)C)C1 (configuration not stated)

Next part
hNpr1 antagonist | Structure
-1% | Cc1ccc(C)c(Cn2ccn3nc4c(c3c2=O)CCCC4)c1
31%[activator][70.6 µM] | Clc1cc(NC2CCCC2)n2nccc2n1
-28% | COc1cc(N2C[C@H]3OC(=O)N(Cc4ccc(OC)c(OC)c4)[C@H]3C2)ncn1
9% | NCC(=O)N1CCC(N2CCCC(C(=O)NCc3ccccc3)C2)CC1 (configuration not stated)
-4% | Cc1cnc(C(=O)N2CCCCCCN(C)C(=O)[C@@H]3CCC[C@@H]32)cn1
4%[70.6 µM] | CN1C(=O)[C@@H]2C[C@@H](CN2C(=O)NCc2ccccc2)Oc2ccccc21
? | O=C1NC2(CCN(Cc3ccc(OC(F)(F)F)cc3)C2)OCc2ccccc21 (configuration not stated)
? | COCCN[C@@H]1C[C@@H]2c3[nH]c4ccccc4c3C[C@@H](C(=O)OC)N2[C@H](c2ccccc2)C1
21%[70.6 µM] | O=C1NCN(Cc2ccc(Cl)cc2)C12CCN(CC1CC1)CC2
0%[70.6 µM] | CC(C)CN[C@@H]1C[C@H](Cn2cc(C3CC3)nn2)[C@@H](O)[C@H]1O
5% | COc1ccc(NC(=O)CN2C(=O)NC3(CCC(C(C)(C)C)CC3)C2=O)cc1OC (configuration not stated)
-23% | Cc1nn(C)c(C)c1-c1ccnc(NCC2COc3ccccc3O2)n1 (configuration not stated)
-27% | Cc1ccc(-c2cn[nH]c2C2CCCN(C(=O)c3[nH]ncc3Cl)C2)cc1 (configuration not stated)
-10% | O=C(NC1CCCc2c1[nH]c1ccc(F)cc21)c1ccccn1 (configuration not stated)
0% | CCN(CC)C(=O)C1=C(C)N=C2SC=C(CC(=O)NCC3CC3)N2C1c1ccccc1 (configuration not stated)
6% | CN(C)S(=O)(=O)NCc1cccnc1N1CCN(c2ccccn2)CC1
-5% | CC(=O)N1C[C@@H](C(=O)N2CCN(c3ncccn3)CC2)[C@H](c2nc(C)no2)C1
2% | O=C1CCN(Cc2ccncc2)CCCC(C(=O)NCCN2CCC(N3CCCCC3)CC2)CCN1 (configuration not stated)
-10% | Cc1cccc(OCC(=O)N2CCC3(CC2)CN(c2ncccn2)CC3CO)c1 (configuration not stated)
0% | CCC(c1cccs1)N1C(=O)[C@H]2CN(S(=O)(=O)c3ccc4c(c3)CCC4)C[C@H]2C1=O (some centres not stated)

Laid out differently: 4 of the compounds above.
SMILES: Cc1cnc(C(=O)N2CCCCCCN(C)C(=O)[C@@H]3CCC[C@@H]32)cn1
  hNpr1 antagonist: -4%

SMILES: Cc1cccc(OCC(=O)N2CCC3(CC2)CN(c2ncccn2)CC3CO)c1 (configuration not stated)
  hNpr1 antagonist: -10%

SMILES: CN1C(=O)[C@@H]2C[C@@H](CN2C(=O)NCc2ccccc2)Oc2ccccc21
  hNpr1 antagonist: 4%[70.6 µM]

SMILES: COc1ccc(NC(=O)CN2C(=O)NC3(CCC(C(C)(C)C)CC3)C2=O)cc1OC (configuration not stated)
  hNpr1 antagonist: 5%

The list continues:
hNpr1 antagonist | Structure
-19% | O=C(Nc1ccccc1)N1CCCCC1c1noc(COc2ccc(F)cc2)n1 (configuration not stated)
9% | CCNC(=O)[C@@H]1C[C@H](N)CN1C(=O)CCn1c(=O)oc2ccc(C)cc21
-15% | CC(C)c1noc([C@@H]2C[C@H]3C(=O)NCCCCCCN(C(=O)COc4ccccc4)[C@H]3C2)n1
-1% | C=CCC1(CO)CCCN(C(=O)c2cccc(N3CCNC3=O)c2)C1 (configuration not stated)
8% | COCCNC(=O)[C@@H]1C[C@@H](O)CN1C1CCN(C(=O)CCc2ccccc2)CC1
0%[70.6 µM] | O=C(NC[C@H]1OC[C@@H](NC2CCCC2)[C@@H]1O)c1ccncc1
-12%[70.6 µM] | COc1ccc(CN2Cc3[nH]nc(-c4cnc(OC)nc4)c3CC2=O)cc1
0% | Cc1ccc(N2CCN(C(=O)c3noc(-c4ccc(F)cc4)n3)CC2)c(C)c1
-5%[70.6 µM] | COc1ccc(CN2CC[C@H]3COC(=O)N3c3cc(C)ccc3C2)cc1
1% | CCOc1cc(CN(C)C(=O)c2cc(C)sc2NC(=O)C(C)(C)C)ccc1OC
-9% | COCCc1noc(C2CN(S(=O)(=O)c3ccc(C#N)cc3)C2)n1
-3% | COc1cccc(NC(=O)c2c(C)oc3ccn(Cc4ccc(F)cc4)c(=O)c23)c1
-20% | COc1ccccc1C1CCCN1C(=O)c1oc2ccc(C)cc2c1C (configuration not stated)
6% | Cn1nccc1C(=O)N1CCC(OC2CCN(Cc3cccnc3)CC2)CC1
-2%[70.6 µM] | CC1=C[C@@H](CNC(=O)c2ccccn2)[C@H](C(C)C)C[C@H]1CC(=O)N1CCN(C)CC1
5% | O=C(c1cc(-c2ccccc2)n[nH]1)N1CCC(N2CC3CC(C2)[C@H]2CCCC(=O)N2C3)CC1 (some centres not stated)
1% | CC(C)C(=O)N1CCC2(CCC(=O)N(CC3CC3)CC2)CC1
0%[70.6 µM] | O=C(NCC1CC1)c1nc2c(o1)CCN(CCc1ccccc1)CC2
3%[70.6 µM] | Cc1noc2c(N3CC[S+](=O)([O-])CC3)cc(-c3cccnc3)nc12
5%[70.6 µM] | COc1ccc2c(c1)CN(C(=O)C1CCCC1)CC[C@H]1COC(=O)N21

Some of the entries above in another layout.
mol	hNpr1 antagonist
COc1ccc(CN2Cc3[nH]nc(-c4cnc(OC)nc4)c3CC2=O)cc1	-12%[70.6 µM]
Cc1noc2c(N3CC[S+](=O)([O-])CC3)cc(-c3cccnc3)nc12	3%[70.6 µM]
CCNC(=O)[C@@H]1C[C@H](N)CN1C(=O)CCn1c(=O)oc2ccc(C)cc21	9%

The listing continues:
hNpr1 antagonist | Structure
1% | COc1ccc(-c2nc(C(C)C)nc3c2CCN(C(=O)c2ccc(F)cc2)CC3)cc1
-7% | C[C@H]1[C@@H]2[C@@H](O)C([C@H](C)C(=O)N3CCCCC3)CC[C@@]2(C)CC[C@@H]1NC(=O)Nc1cccc(F)c1 (some centres not stated)
-11% | CC(C)CCN1C(=O)CC[C@]2(C(=O)N3CCN(c4ccc(F)cc4)CC3)CCCC[C@@H]12
11µM* | O=C(CC1CCCCN(Cc2ccccc2)C1=O)N1CCN(c2ccc(F)cc2)CC1 (configuration not stated)
? | O=C(Cc1c[nH]c2ncc(-c3ccsc3)cc12)N1CCOCC1
-5% | Cc1nc(-c2ccc(CN3CCCC(CN)C3)cc2)[nH]c(=O)c1C (configuration not stated)
-5% | O=C(c1ccc2c(c1)OCO2)N1CCC2(CC1)N=C(c1ccccc1)NO2
3% | O=C(c1ccc(F)c(F)c1)N1CCC([C@@H]2CNC[C@H]2CO)CC1
5% | O=C(N[C@@H]1COCC[C@@H]1OCc1ccccn1)c1n[nH]c2c1CCC2
